YopH PTP inh – YopH tyrosine phosphatase inhibitors, primary screen, biochemical, fluorescence Ex485/Em525; YopH tyrosine phosphatase [Yersinia enterocolitica]; inhibition, %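 (about 10 µM by stock and volumes)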; hit rate 0.16% among 140,000; AID 898, 2007;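 active = inhibition of 50% or more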;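 also: controls were vehicle for no effect and minimum signal wells for full effect; inactives centre near -20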
Arbovirus inh – antivirals against arbovirus infection, primary screen, cell-based, full library, 10K replicate subset; arbovirus infection cell-based antiviral screen; inhibition, % at 10 µM; hit rate 0.37% among 200,000; AID 1251, 2008;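 active = inhibition from about 30%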;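 also: bluetongue infection of BSR cells; cell survival read as ATP light after 72 h; 0% = infected wells without compound and 100% = uninfected wells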
Mtb H37Rv – M. tuberculosis H37Rv growth inhibitors, H37Rv strain (AID 1626); M. tuberculosis H37Rv growth inhibition; higher % means a stronger effect; one-dose inhibition, % at 10 µM; IC50 in µM for titrated hits; hit rate 0.95% among 220,000;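 active = confirmed in a dose series; inconclusive = inhibition above 80% but not taken into the dose series; inactive = below 80% or under 30% at every dose of the series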;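 also: bacteria incubated seven days before Alamar blue readout; 0% = bacteria only wells and 100% = bacteria with antibiotic wells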
RecA intein inh – Mtb RecA intein splicing inhibitors, primary screen, biochemical, fluorescence, HTS | cell-free RecA intein splicing | inhibition, %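 (about 9 µM by stock and volumes)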 | AID 2221, 2009 | hit rate 0.75% among 290,000; in the data active = inhibition above about 30%; inconclusive = no clear call, values can overlap the other calls;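 also: 0% = vehicle wells and 100% = reference inhibitor control wells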
Target sequence (P9WHJ3 whole entry, looked up): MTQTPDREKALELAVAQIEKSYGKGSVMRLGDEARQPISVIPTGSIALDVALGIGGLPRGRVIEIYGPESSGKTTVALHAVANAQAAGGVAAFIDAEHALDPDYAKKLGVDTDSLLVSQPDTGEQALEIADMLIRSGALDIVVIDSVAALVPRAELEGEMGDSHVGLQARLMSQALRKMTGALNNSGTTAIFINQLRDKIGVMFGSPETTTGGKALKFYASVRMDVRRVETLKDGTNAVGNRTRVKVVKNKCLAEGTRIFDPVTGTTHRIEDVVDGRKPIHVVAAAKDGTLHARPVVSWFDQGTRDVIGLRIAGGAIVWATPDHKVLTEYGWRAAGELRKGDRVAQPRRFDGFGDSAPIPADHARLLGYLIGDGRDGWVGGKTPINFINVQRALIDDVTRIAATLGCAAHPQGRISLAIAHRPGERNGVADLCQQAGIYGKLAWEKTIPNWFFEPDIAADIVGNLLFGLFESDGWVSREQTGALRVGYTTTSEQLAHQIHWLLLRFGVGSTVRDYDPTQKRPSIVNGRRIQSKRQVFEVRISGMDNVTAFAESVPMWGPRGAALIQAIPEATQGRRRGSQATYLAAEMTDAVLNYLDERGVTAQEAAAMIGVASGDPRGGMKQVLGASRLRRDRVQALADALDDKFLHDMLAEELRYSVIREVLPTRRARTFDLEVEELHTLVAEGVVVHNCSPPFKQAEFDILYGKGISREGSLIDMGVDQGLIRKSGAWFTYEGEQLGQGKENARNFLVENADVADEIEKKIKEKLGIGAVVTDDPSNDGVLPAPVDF
Mtb betalactam – beta-lactam sensitization of Mtb H37Rv, H37Rv; M. tuberculosis H37Rv growth with meropenem, percent inhibition; hits of this screen are not shown here; inhibition, % at 25 µM; hit rate 0.27% among 330,000; AID 434955, 2010;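 active = about 74% or more and at least 40 points above the plate without the antibiotic, then above 30% in a dose series; inconclusive = first-round hits that could not be retested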;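 also: growth measured after seven days incubation then overnight dye step; 0% = bacteria only wells and 100% = bacteria with antibiotic; twin plates without the antibiotic show which effects depend on it; some results filed as inactive read as strong as hits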
Active calls of the source: *; ? = inconclusive; . = not tested or not shown. A portion of the library; the hit share may differ from the screen's.

Values run as follows: YopH PTP inh	Arbovirus inh	Mtb H37Rv	RecA intein inh	Mtb betalactam
- COCCOC(=O)c1c(C)oc2ccc(NS(=O)(=O)c3cccs3)cc12
 : .	16	9%	-1.1	1
- C=CCOC(=O)/C(=C\C=C\c1ccccc1)NC(=O)c1ccccc1
 : -24	-2	5%	4.7	5
- O=C(NC1CCSc2ccccc21)c1ccc(Cl)c(S(=O)(=O)N2CCOCC2)c1 (centres undefined)
 : .	.	.	2.5	-2
- COc1ccc(OCCC(=O)OCC(=O)Nc2cccc(Br)c2)cc1
 : -9	-7	-12%	1.5	-3
- Cc1c(C=O)c2ccccc2n1CC(=O)O
 : .	2	-4%	-0.3	-1
- CC(=O)N1CCc2cc(S(=O)(=O)N3CCc4ccccc43)ccc21
 : .	.	.	1.6	?
- COc1ccc(NS(=O)(=O)c2cccc(C(=O)NCCCN3CCOCC3)c2)cc1
 : .	.	.	0.4	-2
- CCCNC(=O)c1ccccc1NC(=O)c1ccc2c(=O)n3c(nc2c1)CCC3
 : .	.	.	1.4	11
- S=C(Nc1cccc(Br)c1)c1ccccc1
 : -19	3	5%	6.7	6
- Nc1ncnc2c1ncn2Cc1ccccc1
 : .	1	0%	0.0	0
- Cc1cccc(NC(=O)c2cc(-c3cc(Cl)ccc3O)n[nH]2)c1
 : .	.	.	1.1	3
- CCc1ccc(NC(=S)/N=C(\N)Nc2nc(C)c3cc(CC)ccc3n2)cc1
 : .	-16	.	5.9	57
- COC(=O)c1ccc(CN2C(=O)NC3(CCCCC3C)C2=O)o1 (centres undefined)
 : -34	5	-4%	-1.7	-15
- Cc1cccc(C)c1OCC(=O)Nc1c(C)nn(C)c1C
 : .	.	.	-1.3	-8
- CNC(=O)c1cc2ccccc2o1
 : -28	-5	1%	-0.1	-6
- Cc1cc(C)n(-c2nc(Nc3ccccc3)nc(-n3nc(C)cc3C)n2)n1
 : -38	-6	-3%	-6.3	15
- Cc1c(C(=O)NCCO)sc2nc3n(c(=O)c12)CCC3
 : .	6	2%	2.6	2
- CCOc1ccc(S(=O)(=O)Nc2cccc(C(=O)N3CCN(C(C)=O)CC3)c2)cc1
 : .	.	.	-3.1	-8
- CCn1c(O)c(N=Nc2cccc(S(=O)(=O)N3CCOCC3)c2)c(=O)n(CC)c1=S
 : .	.	-5%	59*	-1
- COc1ccc2sc(N(CCCN(C)C)C(=O)c3ccc(S(=O)(=O)N4CCCC4)cc3)nc2c1
 : .	.	.	2.6	-5

A section from the list above, for reference:
Values run as follows: YopH PTP inh	Arbovirus inh	Mtb H37Rv	RecA intein inh	Mtb betalactam
- CCc1ccc(NC(=S)/N=C(\N)Nc2nc(C)c3cc(CC)ccc3n2)cc1
 : .	-16	.	5.9	57
- COC(=O)c1ccc(CN2C(=O)NC3(CCCCC3C)C2=O)o1 (centres undefined)
 : -34	5	-4%	-1.7	-15
- Cc1cccc(C)c1OCC(=O)Nc1c(C)nn(C)c1C
 : .	.	.	-1.3	-8
- CNC(=O)c1cc2ccccc2o1
 : -28	-5	1%	-0.1	-6

More records.
Values run as follows: YopH PTP inh	Arbovirus inh	Mtb H37Rv	RecA intein inh	Mtb betalactam
- CN(CC(=O)Nc1ccc(Cl)c(C(F)(F)F)c1)C(=O)c1cc(-c2ccncc2)nc2ccccc12
 : .	.	.	12	7
- Cc1ccc(S(=O)(=O)N(C)C)cc1NC(=O)CSc1ccc2c(c1)OCCO2
 : .	.	.	-3.8	6
- COc1ccc(CN2CCCC(N3CCN(c4cccc(Cl)c4)CC3)C2)cc1OC (centres undefined)
 : .	.	.	3.7	-2
- COC(=O)[C@@H]1CCCN1C(=O)[C@@H](NC(=O)OC(C)(C)C)C(C)C
 : .	.	-9%	-3.0	-4
- CC(=O)c1cccc(NC(=O)COC(=O)COc2ccc(Cl)cc2)c1
 : .	10	-3%	0.6	-6
- O=C(NNC(=O)c1c(F)cccc1F)c1sccc1-n1cccc1
 : .	14	2%	-1.9	-1
- Cc1cc(C)c(NC(=O)CSc2nnc(Cc3cccn3C)n2-c2ccc(F)cc2)c(C)c1
 : -4	0	-2%	4.9	-5
- O=S(=O)(Nc1ccc(Cl)cc1)c1ccc(N2CCOCC2)c(NC(=S)NC2CC2)c1
 : .	3	-3%	-0.2	0
- O=C(Nc1ccccc1)C1=C[C@@H](c2ccc3c(c2)OCO3)C[C@@H](OCCCCO)O1
 : .	.	7%	-1.3	6
- Cn1c(SCC(=O)c2ccccc2)nc2cccnc21
 : 0	-1	5%	0.6	-4
- CCc1cccc(NC(=O)CCS(=O)(=O)c2ccc3c(c2)NC(=O)CO3)c1
 : .	.	.	2.9	-3
- COCCCN(C(=S)NC(=O)C(C)(C)C)c1c(N)n(Cc2ccccc2)c(=O)[nH]c1=O
 : .	.	-5%	-1.1	-7
- Cc1ccc(C(=O)/C=C/c2ccc3ncccc3c2)cc1
 : .	.	.	2.2	96
- CCOc1ccc(C(C)(N)C(=O)O)cc1 (centres undefined)
 : 14	-4	-6%	-0.7	-2
- O=C(COC(=O)c1ccc(NS(=O)(=O)c2ccc(Br)s2)cc1)NC1CCCC1
 : .	16	-5%	1.1	0
- CCC(=O)N(Cc1cccs1)C1CCOC(C)(C)C1 (centres undefined)
 : -28	5	-2%	.	-4
- O=C1C2ON(c3ccccc3)C(c3ccccn3)C2C(=O)N1c1ccc(Br)cc1 (centres undefined)
 : -17	-1	4%	-0.4	-5
- Cc1c(C(=O)O)sc2nc(SCC(=O)Nc3ccc(S(=O)(=O)NCCCC(=O)O)cc3)[nH]c(=O)c12
 : .	5	-4%	-3.6	1
- Cc1ccc(C)c(OCCC(=O)OCC(=O)NCCNC(=O)COC(=O)CCOc2cc(C)ccc2C)c1
 : .	.	.	-2.5	-4
- NS(=O)(=O)c1cccc(NC(=O)COC(=O)c2cc(Cl)ccc2[N+](=O)[O-])c1
 : .	.	-2%	-2.3	-2
- C=CCN1C(=O)C(O)(CC(=O)c2ccccn2)c2ccccc21 (centres undefined)
 : .	-3	2%	-1.9	-8
- CC(C)OCCOc1ccc2oc(-c3ccco3)cc(=O)c2c1
 : .	.	.	1.2	35
- O=C(COc1ccccc1)Nc1ccncc1
 : .	4	-2%	-0.7	5
- O=C(Cc1ccc([N+](=O)[O-])cc1)NNC(=O)c1ccc2c(c1)OCO2
 : .	.	.	-1.4	-3
- Clc1ccccc1CSC1=NCCN1
 : .	7	0%	8.2	0
- O=C(Nc1ccc(-c2n[nH]c(=S)o2)cc1)c1ccccc1
 : .	.	.	-0.7	45
- N=C1C(c2ccccc2)=C(O)CN1CCO
 : .	5	-6%	.	-10
- CCOC(=O)C(=O)c1c(C)cc2ccccn12
 : .	0	3%	.	.
- CC(=O)C1=C(NC(=O)c2ccc(C(F)(F)F)cc2)C[C@@H]2[C@H]1C2(C)C
 : .	.	-6%	4.4	-5
- CCC(=O)Nc1c2c(nn1-c1cccc(Cl)c1)CS(=O)(=O)C2
 : .	.	.	-0.7	1
- COc1ccc(C(O)c2nccn2Cc2ccccc2)cc1OC (centres undefined)
 : -37	21	-8%	9.0	2
- CCCCNC(=O)Cn1c(-c2ccc(OC)cc2)noc1=O
 : -9	4	-7%	-0.7	-3
- CC(C)(C)C(Cn1ccnc1)NC(=O)c1ccc2nc(C3CC3)oc2c1 (centres undefined)
 : .	.	.	0.1	-25
- O=[N+]([O-])c1c(N2CCN(CCO)CC2)nc2ccccn12
 : .	.	-14%	2.1	13
- O=C(O)c1ccccc1C(=O)NCc1c(Cl)cccc1Sc1ccc(Cl)cc1
 : .	.	.	5.5	7
- CCn1c(SCC(=O)NC2=NCCS2)nnc1C(C)NC(=O)c1ccccc1Br (centres undefined)
 : .	.	.	3.3	-12
- CC(C)c1nnc(NC(=O)CCC(=O)NC2CCCc3ccccc32)s1 (centres undefined)
 : -13	0	79%	3.3	-1
- C[C@H](NC(=O)CCCOc1ccc(Cl)cc1Cl)c1nnc2ccccn12
 : .	.	.	0.4	4
- Cc1ccc2c(c1)N(CC(=O)NCc1cccnc1)C(=O)CO2
 : 8	-1	-11%	-4.0	-7
- CC(=O)c1ccc(C(=O)N2CCc3c([nH]c4ccccc34)C2c2ccccn2)s1 (centres undefined)
 : .	0	6%	3.1	3
- CCCCNCCOCCSc1ccc(Cl)cc1
 : -53	-7	-1%	0.7	11
- COc1cc(COCC(O)CN2C(C)CCCC2C)cc(OC)c1OC (centres undefined)
 : .	.	.	-2.0	2
- Cc1cc(NC(=O)c2n[nH]c(=O)c3ccccc23)ccc1Br
 : .	.	-12%	4.2	-5
- CC(NC(=O)COc1ccc([N+](=O)[O-])cc1)c1ccccc1 (centres undefined)
 : .	3	4%	0.5	-2
- O=C(Nc1cc(C(F)(F)F)ccc1N1CCOCC1)c1n[nH]c(=O)c2ccccc12
 : -41	-1	1%	0.8	6
- c1ccc(OCc2nn3c(-c4ccco4)nnc3s2)cc1
 : -51	-11	5%	5.2	16
- O=C(NCCC1=CCCCC1)c1cc2c(s1)CS(=O)(=O)C2
 : 15	6	12%	0.8	1
- CC(C)c1ccc(N2C(=O)CC(Sc3ncccn3)C2=O)cc1 (centres undefined)
 : .	.	.	0.9	-3
- CCc1ccc(C(=O)COC(=O)c2nn(C)c(=O)c3ccccc23)cc1
 : .	0	3%	3.4	-4
- Cn1nc(C(F)(F)F)cc1Oc1ncc(C(F)(F)F)cc1Cl
 : .	25	-6%	-5.0	-5

(cont.)
Values run as follows: YopH PTP inh	Arbovirus inh	Mtb H37Rv	RecA intein inh	Mtb betalactam
- O=C(NNC(=O)C1CC=CCC1C(=O)O)c1ccc(Cl)cc1 (centres undefined)
 : .	1	4%	-0.4	-1
- O=C(COc1ccc([N+](=O)[O-])cc1)NCc1ccccc1
 : -28	-4	2%	-1.9	-8
- Cc1nc2ccc(C(=O)N3CCN(Cc4ccccc4)CC3)cc2[nH]1
 : .	.	.	-3.2	3
- CCOC(=O)c1c(Cl)c(C)nn1-c1nc(OC)cc(OC)n1
 : -2	6	-3%	-2.2	4
- O=C(NC(=S)N1CCN(c2ccc(F)cc2)CC1)C12CC3CC(CC(C3)C1)C2
 : -27	3	0%	3.0	-5
- Cc1ccc(-c2n[nH]c(=S)n2/N=C/c2cccs2)cc1
 : -14	6	9%	0.2	0
- O=C(Nc1ccc(F)cc1)c1cccnc1N1CCCCC1
 : -7	11	-3%	-4.1	31
- O=C(NCCCCc1ccccc1)Nc1ccc(F)cc1
 : .	.	.	1.6	-8
- CC(C)CCN1CCN(C2CCN(c3ccc4c(c3)OCO4)CC2)CC1CCO (centres undefined)
 : .	-14	4%	-3.5	-1
- Cn1c(=O)cc(SCC(=O)NCCC2=CCCCC2)c2ccc(Cl)cc21
 : -22	2	2%	-2.5	-2
- Cc1ccccc1Cn1cnc2c([N+](=O)[O-])c(C)c(C)cc21
 : -32	1	3%	5.2	-15
- Cc1ccccc1CN1CCN(C(=O)c2ccco2)CC1
 : .	.	.	0.4	-3
- Cn1c(=O)c2[nH]c(-c3ccccc3)nc2n(C)c1=O
 : -57	14	-8%	.	.
- Cc1ccccc1Nc1nc(N)nc(CSc2ccc(F)cc2)n1
 : .	-2	9%	-0.5	22
- Cc1ccc(-n2c(SCC(=O)N3CCOCC3)nnc2-c2cccnc2)cc1C
 : -31	3	2%	3.4	-5
- CN1CCc2c(sc(NC(=O)C3CCCCC3)c2C(N)=O)C1
 : .	.	.	-10	-7
- C=CCNC(=S)NNC(=O)c1ccc(Br)o1
 : -30	1	1%	-0.2	0
- COc1ccc(N(CC(=O)N/N=C/c2ccccc2OC)S(=O)(=O)c2ccccc2)cc1
 : .	.	.	-1.9	2
- COC(=O)c1ccc(/C=N/n2c(C)nc3ccccc3c2=O)cc1
 : .	.	.	8.2	1
- CCCCn1c(SCC(=O)c2ccc3c(c2)OCCO3)nnc1-c1ccoc1C
 : -27	4	.	5.6	-2
- CC(C)[C@H](NC(=O)C1CC(=O)N(c2ccc(F)cc2)C1)C(=O)N1CCCCC1 (some centres undefined)
 : .	.	.	-1.9	-3
- CCOc1ccc(NC(=S)N(CCN2CCOCC2)Cc2ccc3c(c2)CCCN3CC)cc1
 : .	-3	-2%	0.3	0
- COc1ccccc1N1CCN(Cc2nc3ccccc3[nH]2)CC1
 : .	.	.	-1.2	5
- C=CCNC(=S)NNC(=O)COc1ccc(Cl)cc1Cl
 : -37	-1	4%	-0.1	-4
- O=C1COc2ccccc2N1Cc1ccccc1Cl
 : 6	-6	-7%	3.5	-3
- C#CCOCCOCCOCCNc1nc(N2CCN(C(=O)[C@H](Cc3cc4ccccc4[nH]3)n3cc([C@@H](N)C(C)CC)nn3)CC2)nc(N2CCN(C(=O)[C@H](CCCCN)n3cc([C@@H](N)CO)nn3)CC2)n1 (some centres undefined)
 : .	-1	.	-0.1	59

Assay outcomes (PubChem BioAssay)
